# Screens (PubChem)
# SARS PLP yeast – blocks SARS-CoV papain-like protease in a yeast assay; S. cerevisiae expressing SARS-CoV PLpro, growth rescue; control for the full effect not named in the record; Potency, µM (doses to about 32.9 µM), without a hit: at the top dose activity, positive = growth rescue; 330,000 tested, 0.19% active; active means well fitted rising curve with a large enough effect; inconclusive means small, poorly fitted or top-dose-only effect; inactive means no such curve, though single readings can be large or run the other way; also: 0% is about no effect; nearly all actives have a fitted effect of over 55% in size; growth read by luminescence after 48 h
# 2A StopGo – lowers the luciferase signal of an FMDV 2A StopGo reporter | human cells with a luciferase reporter of 2A StopGo recoding; control for the full effect not named in the record | Potency, µM (titrated, usually from 57.9 µM), for inactives: at the highest dose signal change, negative = less light | 410,000 tested, 1.2% active | AID 1159524; active = well fitted falling curve with a large enough effect; inconclusive = small, poorly fitted or top-dose-only effect; inactive = no such curve, though single readings can be large or run the other way; tested in HEK293T cells; also: % is scaled to controls: 0 for no effect and ±100 for the full control effect; nearly all actives have a fitted effect of over 45% in size; luciferase light after 4 h
# NS1 function inh – influenza NS1 inhibition. S. cerevisiae slowed by influenza A NS1, growth recovery by OD600. Potency, µM (highest dose often 46.1 µM), for the others: top-dose activity, positive = more growth. 270,000 tested, 0.4% active; active means well fitted rising curve with a large enough effect; inconclusive means small, poorly fitted or top-dose-only effect; inactive means no such curve, though single readings can be large or run the other way; also: nearly all actives have a fitted effect of over 50% in size
#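 S. cerevisiae expressing influenza A NS1, grown in glucose, washed, then diluted 1:100 into pH 6.0 -URA galactose medium with 23 nl compound. Growth recovery read as OD600; NS1-free strain serves as control.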
# Cruzain inh Det – cruzain (T. cruzi) inhibition with detergent | P25779 | purified cruzain, Z-FR-AMC fluorescence, 0.01% Triton | Potency, µM, inactives show max response, negative = inhibition, most hits filed as inhibitors | 200,000 tested, 0.43% active | AID 1478;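 also: plate controls were neutral wells for no effect and buffer without enzyme for full effect; nearly all actives have a fitted effect of over 40% in size; top concentration of the series not given in the record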
# Target sequence (P25779 123-467 limits assumed): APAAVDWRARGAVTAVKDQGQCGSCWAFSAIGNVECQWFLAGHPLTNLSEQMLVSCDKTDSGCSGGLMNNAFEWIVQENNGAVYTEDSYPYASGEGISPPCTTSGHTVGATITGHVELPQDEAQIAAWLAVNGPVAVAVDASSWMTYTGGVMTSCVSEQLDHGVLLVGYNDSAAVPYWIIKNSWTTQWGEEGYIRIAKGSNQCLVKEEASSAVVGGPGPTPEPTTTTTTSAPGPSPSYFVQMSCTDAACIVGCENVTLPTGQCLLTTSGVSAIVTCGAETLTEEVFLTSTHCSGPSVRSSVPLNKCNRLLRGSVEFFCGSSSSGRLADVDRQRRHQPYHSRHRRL
#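 Steps: dispense cruzain (1.5 nM final) in acetate buffer pH 5.5 with DTT and 0.01% Triton X-100; pin-transfer compounds; incubate 15 min RT; add Z-FR-AMC (2 uM final); read fluorescence every 30 s, using the 60 s intensity change.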
# MARV entry inh – inhibitors of Marburg virus binding or cell entry; 300,000 tested, 1.8% active; Potency, µM (titrated, usually from 37.8 µM), without a hit: top-dose activity change, negative = inhibition, usual class: inhibitors; Marburg virus pseudotyped entry inhibition, cell reporter; control for the full effect not named in the record; about a third of the inactives were read at about 46 µM; active = well fitted inhibition curve with a large enough effect; inconclusive = small, poorly fitted or top-dose-only effect, or effect the other way; inactive = flat fitted curve, though single readings scatter; tested in HEK293 cells; about a fifth of its hits are not listed in these tables; also: % is scaled to controls: 0 for no effect and ±100 for the full control effect; luciferase read-out
# Cruzain noTriton – cruzain (T. cruzi) inhibition without detergent; P25779; purified cruzain, Z-FR-AMC fluorescence, no detergent; Potency, µM, without a hit: max response, negative = inhibition, most hits filed as inhibitors; 200,000 tested, 2.3% active; AID 1476;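 also: plate controls were enzyme without inhibitor for no effect and buffer without enzyme for full effect; nearly all actives have a fitted effect of over 40% in size; top concentration of the series not given in the record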
#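 Detergent-free condition (0.00005% Triton X-100) in acetate buffer pH 5.5 with DTT. 1.5 nM enzyme and compound were pre-mixed 15 min, then 2 uM Z-FR-AMC substrate added; reaction progress from fluorescence change between first and third reads (60 s).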
# RE007 growth inh – less growth of the S. pombe RE007 Vpr strain; S. pombe RE007 Vpr strain, BacTiter-Glo ATP luminescence, 24 h; control for the full effect not named in the record; Potency, µM (highest dose often 92.2 µM), for inactives: at the highest dose activity change, negative = less growth; 360,000 tested, 0.21% active; AID 651644; active = well fitted falling curve with a large enough effect; inconclusive = small, poorly fitted or top-dose-only effect; inactive = no such curve, though single readings can be large or run the other way;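 also: % is scaled to controls: 0 for no effect and ±100 for the full control effect; nearly all actives have a fitted effect of over 50% in size; the assay follows cell death caused by Vpr and the record does not say whether a fall means rescue or toxicity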
#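 Fission yeast RE007 carrying one integrated HIV-1 vpr copy, seeded at OD 0.01 in PMG+AL medium with 23 nL pinned compound. Grown 24 h at 30 degrees; viability read by BacTiter-Glo luminescence after 5 min.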
# LASV entry inh – blocks Lassa virus binding to or entry into cells | Lassa virus pseudotype entry inhibition, cell reporter; control for the full effect not named in the record | Potency, µM (highest dose often 37.9 µM), inactives show top-dose activity change, negative = inhibition, usual class: inhibitors | 300,000 tested, 1.2% active | AID 540256; active means well fitted inhibition curve with a large enough effect; inconclusive means small, poorly fitted or top-dose-only effect, or effect the other way; inactive means flat fitted curve, though single readings scatter; tested in HEK293 cells; also: % is scaled to controls: 0 for no effect and ±100 for the full control effect; nearly all actives have a fitted effect of over 50% in size; luciferase read-out
# The depositor's hits bear a star; ? = inconclusive; / = no result given; & = joins results of further samples; [ ] = dose if it differs, or a comment. Unless noted, calls follow the shape of the dose curve; as a rule, active = well fitted curve in the direction sought with a large enough effect; inconclusive = small, poorly fitted or top-dose-only effect, or another doubt; inactive = no such curve, though single readings can be large; an effect the other way counts as inactive or inconclusive. Potency is read from the fitted curve at half-maximal effect.
SMILES,SARS PLP yeast,2A StopGo,NS1 function inh,Cruzain inh Det,MARV entry inh,Cruzain noTriton,RE007 growth inh,LASV entry inh
COc1ccc(F)cc1S(=O)(=O)NC(Cc1ccccc1)C(N)=O (configuration not stated),0%,12%,14%,2.2%,16%[46.1 µM],-7%,0%,5%
O=C(CSc1ncn[nH]1)N1N=C2/C(=C/c3ccccc3)CCCC2C1c1ccccc1 (configuration not stated),?,-23%,13%,-11%,-4%,6%,0%,/
CCCOc1ccc(CNC(=O)c2cc3ccccn3n2)cc1,/,28%,/,-7.4%,/,6%,/,?
CNC(=O)CCc1[nH]c2ccccc2c1Sc1ccccc1,10%,15%,-12%,-5.4%,?,1%,/,?
COc1ccc(C(=O)NCc2nnc(SCC(=O)N3CCCCC3)o2)cc1,10%,-3%,/,/,25%[46.1 µM],/,6%,12%
NNC(=S)NCc1cccnc1,12%,-16%,4%,-1.7%,?,-3%,-19%,?
Cc1ccc(NC(=S)N2CCC(C(=O)c3ccc(F)cc3)CC2)cc1C,/,15%,/,/,-21%[46.1 µM],/,4%,?
O=c1cc(O)nc2n1CCCS2,6%,12%,7.9µM*,1.7%,-2%&-2%[46.1 µM],-3%,-2%,3%
NC(=O)c1cccc2c1C(=O)N(C1CCCCC1)C2,-22%,-8%,-3%,-2.0%,-11%,-7%,1%,2%
CCc1nnc(NC(=O)Nc2ccc(OC)cc2)s1,-1%,17%,-5%,2.1%,45%,9%,2%,24%
Cc1csc(NC(=O)c2ccncc2)n1,-1%,-10%,8%,/,/,/,-11%,/
O=C(NC1CCCC1)C(c1ccc(N2CCOCC2)cc1)N(C(=O)c1ccco1)c1ccccc1F (configuration not stated),0%,-6%,-5%,/,1%[46.1 µM],/,1%,-12%
COCC(=O)OC1CCn2c1nc1c2C(=O)C(C)=C(NC(C)=O)C1=O (configuration not stated),/,10µM*,/,/,?,/,0%,3.2µM*
O=C(NNC(=O)C1CCCC1)c1ccc(F)cc1,0%,33%[activator],3%,/,-1%[46.1 µM],/,-16%,3%
COc1cc(CN(C2CC2)S(=O)(=O)c2ccccc2Br)cc(OC)c1,-17%,-8%,/,/,/,/,-2%,?
Cc1onc(-c2c(F)cccc2Cl)c1C(=O)OCN1C(=O)c2ccccc2C1=O,3%,?,-1%,-5.6%,3%,-9%,14%,5%
COCCCNC(=O)Cn1cc(C(=O)c2cccs2)c2ccccc21,16%,18%,2%,-3.3%,-26%,-2%,3%,2%
O=C(NC1c2ccccc2-c2ccccc21)N1CCOCC1,-11%,/,-2%,-2.0%,-16%,2%,0%,24%
Cc1c(N)cc(S(=O)(=O)O)cc1NC(=O)c1cccc([N+](=O)[O-])c1,/,-6%,/,/,1%[46.1 µM],/,13%,16%[46.1 µM]
CCOc1ccc(C(=O)Nc2ccccc2N2CCN(C(=O)c3ccccc3)CC2)cc1[N+](=O)[O-],0%,-16%,11%,/,-9%,/,11%,?
Cc1ccc(CNC(=O)COc2cccc3c2OC(C)(C)C3)cc1,4%,-7%,/,/,-13%,/,-2%,-24%
O=C(CCCCC(=O)N1CCOCCOCCOCC1)OCc1ccccc1,-1%,6%,-2%,/,4%[46.1 µM],/,3%,8%
CC(C)COc1ccc(C/C(N)=N/n2cnnc2)cc1,0%,-17%,0%,/,1µM*,/,6%,?
CCOC(=O)CNC(=O)C1CCN(S(=O)(=O)c2ccc(-c3nn[nH]n3)cc2)CC1,1%,10%,11%,/,4%[46.1 µM],/,1%,2%
CC(=O)Nc1c(C)nn(C(C)=O)c1C,-4%,?,7%,-0.9%,15%,-9%,0%,1%
CC1(C)NC(C(=O)O)Cc2c1[nH]c1ccccc21 (configuration not stated),1%,-14%,1%,/,5%[46.1 µM],/,-4%,2%
COc1cc(C(=O)Nc2ccccc2N2CCN(S(C)(=O)=O)CC2)cc(OC)c1OC,?,-32%,-22%,1.9%,-20%,?,0%,-12%
Fc1ccc(C2c3[nH]c4ccccc4c3CCN2CCCn2cccn2)cc1 (configuration not stated),2%,-15%,4%,/,-27%[46.1 µM],/,-8%,?
COc1ccc(S(=O)(=O)Nc2ccc3c(c2)N(C(C)=O)CCC3)cc1F,/,10µM*,/,-0.7%,/,-7%,/,?
CCCCN(C(=O)c1cnc2n(c1=O)CCS2)c1ccccc1,1%,-22%,1%,-4.3%,/,1%,-4%,/
Cc1cccc(-c2c3c(=O)n(C)c(=O)n(C)c3cn2C(C)(C)C)c1,-2%,-21%,-13%,-2.2%,0%,-1%,10%,18%[14.3 µM]
Cc1c(C(=O)Nc2cccc(S(=O)(=O)N3CCOCC3)c2)oc2ccc(Br)cc12,1%,-19%,/,/,?,/,-3%,26%
O=C(CCS(=O)(=O)c1ccc(Br)cc1)N1CCN(c2ccccc2)CC1,-10%,-29%,-33%,4.9%,-20%,11%,-18%,-4%
CCOc1ccc(C(=O)NCCc2csc(-c3cccc(C)c3)n2)cc1,/,-12%,/,-9.6%,/,28%,/,-3%[46.1 µM]
Cc1ccccc1OCC1Cc2c(nc(N)c(C#N)c2N)O1 (configuration not stated),2%,28%,-16%,-0.1%,17%,-6%,-3%,13%
Cc1cc(C(=O)N2CCN(c3ccc(F)cc3)CC2)c2c(C)nn(-c3cccc(Cl)c3C)c2n1,/,-12%,/,-0.3%,/,6%,/,13%[46.1 µM]
CN(CC(=O)Nc1ccc(F)c(F)c1F)C(=O)/C=C/c1ccc(Cl)cc1,0%,-6%,-7%,-4.1%,1%,-2%,1%,18%
CCOC(=O)c1cc(C)sc1NC(=O)C1CCC1,0%,1%,-19%,-4.1%,2%,-8%,-13%,23%
CCOc1ccccc1CNC(=O)Cn1c(=O)oc2ccccc21,-3%,4%,-5%,0.7%,/,-9%,-3%,/
Clc1nnc(N2CCCCC2)c2ccccc12,0%,-26%,-2%,/,4%[46.1 µM],/,-15%,2%[46.1 µM]
COc1ccc(C(=O)c2c(C)oc3ccc(O)cc23)c(OC)c1,-4%,-32%,0%,/,?,/,-18%,4%[46.1 µM]
O=C(Nc1ccccc1C(=O)N1CCN(Cc2ccccc2)CC1)c1ccccc1,-3%,-24%,6%,/,-5%,/,-5%,-13%
CS(=O)(=O)Nc1ccc(Cc2noc(-c3ccc4[nH]cc(CCN)c4c3)n2)cc1,-3%,-8%&-15%,/,-2.4%,/,32µM*,/,/
CCCCn1c(N)c(N(CC)C(=O)CN2C(=O)NC(C)(c3ccccc3)C2=O)c(=O)[nH]c1=O (configuration not stated),/,-9%,/,/,?,/,0%,-25%
Cc1ccccc1OCCSc1nnc(C)n1-c1ccccc1,4%,26%,-5%,0.2%,14%,5%,9%,?
S=c1[nH]nc(-c2cccs2)n1/N=C/c1cn(-c2ccccc2)nc1-c1cccs1,3%,5%,13%,/,?,/,-6%,?
Cc1ccc(C)c(N2CCN(C(=O)CSc3ccsc3[N+](=O)[O-])CC2)c1,-14%,34%[activator],6%,-17%,-2%,?,-4%,4%
CCOC(=O)Cn1c(O)c(N=NC(=O)CNC(=O)Cc2ccccc2)c2ccccc21,-4%,-3%,1%,/,5%[46.1 µM],/,-12%,-2%[46.1 µM]
CCCCOc1ccc(C(O)(CC)CCN2CCOCC2)cc1 (configuration not stated),14%,/,-9%,-1.9%,-26%,-3%,10%,-18%
COc1ccc(CC(=O)c2ccc(OC)c(OC)c2C)cc1OC,-10%,-3%,0%,-1.6%,?,-5%,0%,?
CC(C)(C)c1nnc2sc(SC/C(O)=C(\C#N)c3nc4ccccc4[nH]3)nn2c1=O,1%,-16%,-8%,-9.1%,15%[46.1 µM],-28%,-3%,5%
COc1ccc(Cn2c(-c3ccc(OC)cc3)n[nH]c2=S)cc1,7%,-19%,8%,/,0%[46.1 µM],/,13%,?
O=C(CSc1nnc(-c2cccs2)o1)Nc1cccc(C(F)(F)F)c1,/,-2%,/,-10%,17%[46.1 µM],7%,/,2%[46.1 µM]
CNC(=S)N/N=C/c1ccc(OCC(=O)Nc2c(C)cc(C)cc2C)c(OC)c1,-5%,-28%,2%,-6.4%,-11%,4%,3%,-15%
c1ccc(CNc2ncnc3c2oc2ccccc23)nc1,-3%,26%,-18%,1.0%,29%,3%,-15%,?
COc1cc(S(=O)(=O)Nc2ccccc2C)ccc1Cl,-5%,23%,-54%,-3.9%,-11%,8%,0%,-2%
O=C(Nc1nonc1NC(=O)c1cccs1)c1cccs1,2%,?,/,/,?,/,-9%,8.9µM*
C#CCOc1ccc(C2CC(=O)Nc3c2c(C)nn3-c2nc(C)cc(C)n2)cc1 (configuration not stated),/,-14%,/,-3.4%,-4%[46.1 µM],?,/,-2%[46.1 µM]
O=C(c1cccs1)N(Cc1ccccn1)Cc1ccco1,4%,2%,-3%,5.0%,-3%,-8%,-4%,1%
COC(=O)[C@H](C)[C@H]1C[C@]1(C)[C@H](NC(=O)OCc1ccccc1)c1ccccc1,-13%,-28%,-67%,3.2%&-10%,-25%,-6%&-1%,7%,?
# New compounds follow:
SMILES,SARS PLP yeast,2A StopGo,NS1 function inh,Cruzain inh Det,MARV entry inh,Cruzain noTriton,RE007 growth inh,LASV entry inh
COc1cc(-c2noc(-c3cccc(Cl)c3)n2)cc(OC)c1OC,2%,12%,-1%,4.9%,15%,?,7%[3.69 µM],13%
COc1ccc(CC(=O)N[C@@H](CCSC)C(=O)N2CCC3(CC2)NCCc2[nH]cnc23)cc1,16%,-12%,20%,/,/,/,2%,/
CCOC(=O)Cc1csc(NS(=O)(=O)c2ccc(SC)cc2)n1,5%,-3%,0%,/,22%[46.1 µM],/,-14%,6%
O=C(COc1ccc2c3c(c(=O)oc2c1)CCC3)N[C@@H](Cc1ccccc1)C(=O)O,8%,-14%,4%,/,/,/,17%,/
O=C(CCn1cnnn1)Nc1ccccc1F,0%,-4%,/,/,10%,/,?,13%
